High-throughput results as filed in PubChem BioAssay.
Rango dissoc inh = inhibition of RanGTP-driven Rango-importin beta dissociation; Potency, µM (highest dose often 46.1 µM), without a hit: at the highest dose activity change, negative = inhibition; O95149+P62826; Biochemical FRET Rango-importin beta, RanGTP-induced dissociation; actives 0.071% (n = 340,000); active means falling FRET ratio curve, often poorly fitted, with flat reads before Ran was added; inconclusive means other falling curves, or compound fluorescence or quenching; inactive means flat or rising ratio curve;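 also: potency is read from the fitted curve at half-maximal effect; % of control where 0% means no effect; nearly all actives have a fitted effect of over 45% in size; -100% = wells without RanGTP and RCC1; the record marks most hits as doubtful in a second field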
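Compounds preincubate 5 min with complex of recombinant Rango and importin beta in PBS with 1 mM DTT. Ran (0.6 uM) loaded with 2 mM GTP plus 0.2 uM RCC1 starts dissociation; FRET is recorded 45 min later.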
miR-21 reporter = raises the signal of a miR-21 reporter; HeLa miR-21 FLuc reporter, luciferase, 48 h; Potency, µM (series often up to 38.3 µM), inactives show top-dose reporter change, positive = more light; 340,000 tested, under 10 active; AID 2288; active = well fitted rising curve with a large enough effect; inconclusive = small, poorly fitted or top-dose-only effect; inactive = no such curve, though single readings can be large or run the other way;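 also: % of control where 0% means no effect; miR-21 action dims this reporter so a rising signal means less miR-21 action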
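HeLa miR-21-FLuc reporter line, endogenous miR-21; 2000 cells/well in DMEM/10% FBS; compound titration up to ~40uM final, 48 h, 37 degree Celsius; luciferase detection reagent, 15 min lysis, CCD luminescence.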
GLA inh pH 4.5 = blocks human alpha-galactosidase A at pH 4.5 | P06280 | purified enzyme, 4-MU-alpha-Gal fluorescence, pH 4.5 | activity change, negative = inhibition, % at 105 µM | 230,000 tested, under 10 active; inconclusive = small, poorly fitted or top-dose-only inhibition, or a rising curve; inactive = flat fitted curve, though single readings scatter; no compound was filed as active;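 also: 0% = full activity with enzyme and -100% = basal without enzyme; dose as in the result columns while the protocol names 77 µM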
Rango complex inh = inhibitors of Rango-importin beta complex formation; Rango CFP/YFP FRET sensor + importin beta, 45 min; Potency, µM (top dose mostly 92.2 µM), for inactives: top-dose inhibition of complex formation; actives 0.031% (n = 340,000); AID 540263; active = rising FRET ratio curve, often small or poorly fitted; inconclusive = mostly compound fluorescence or quenching in the first reads; inactive = flat curves in all reads;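 also: potency is read from the fitted curve at half-maximal effect; 0% = DMSO wells and 100% = buffer wells lacking importin beta; nearly all actives have a fitted effect of over 15% in size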
Target sequence (Q14974 whole entry, looked up): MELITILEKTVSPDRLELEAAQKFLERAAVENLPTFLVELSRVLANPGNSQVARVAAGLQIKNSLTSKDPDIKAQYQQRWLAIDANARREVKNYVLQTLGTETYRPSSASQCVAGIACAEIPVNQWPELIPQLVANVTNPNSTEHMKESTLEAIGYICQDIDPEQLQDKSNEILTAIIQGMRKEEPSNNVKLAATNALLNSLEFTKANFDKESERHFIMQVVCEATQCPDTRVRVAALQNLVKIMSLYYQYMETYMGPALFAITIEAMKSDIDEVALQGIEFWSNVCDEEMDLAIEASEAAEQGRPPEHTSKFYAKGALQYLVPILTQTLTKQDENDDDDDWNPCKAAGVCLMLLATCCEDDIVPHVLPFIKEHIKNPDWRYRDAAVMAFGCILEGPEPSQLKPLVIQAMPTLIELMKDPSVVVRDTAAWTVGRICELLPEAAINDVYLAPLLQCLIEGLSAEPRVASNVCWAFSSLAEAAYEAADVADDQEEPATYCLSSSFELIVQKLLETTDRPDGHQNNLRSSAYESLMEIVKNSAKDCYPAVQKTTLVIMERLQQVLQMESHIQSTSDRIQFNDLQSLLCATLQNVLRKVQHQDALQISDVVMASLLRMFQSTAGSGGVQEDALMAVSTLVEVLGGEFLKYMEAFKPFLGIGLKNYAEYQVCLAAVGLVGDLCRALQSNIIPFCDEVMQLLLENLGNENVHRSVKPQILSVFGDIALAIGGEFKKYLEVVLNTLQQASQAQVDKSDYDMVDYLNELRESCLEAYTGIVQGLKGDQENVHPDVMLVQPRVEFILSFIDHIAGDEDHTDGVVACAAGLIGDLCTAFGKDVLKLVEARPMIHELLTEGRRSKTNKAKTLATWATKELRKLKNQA
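FRET biosensor Rango (snurportin 1 IBB between N-terminal EYFP and C-terminal Cerulean), 50 nM in PBS/1 mM DTT/0.02% Tween-20/0.1% BSA, preincubated 5 min RT with compound; 0.125 microM importin beta added, 45 min RT, CFP/YFP FRET ratio read.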
Active calls of the source: *; & = joins results of further samples. These rows are one share of the data; count on the stated rates, not on these rows.

What do the screens show for `Cc1ccc(N(CC(=O)NC2CCCCC2C)S(=O)(=O)c2c(C)nn(C)c2C)cc1` (stereo not given)?
Rango dissoc inh: 34%; miR-21 reporter: 0%; Rango complex inh: -0.6%

Results for Cc1ccc(OCC(=O)Nc2ccc(C)c(S(=O)(=O)N3CCCCCC3)c2)c([N+](=O)[O-])n1 ?
Rango dissoc inh: -2%; miR-21 reporter: 0%; GLA inh pH 4.5: -11; Rango complex inh: 0.9%

Results for CSc1nnc(C)c(=O)n1COC(=O)COc1ccccc1C ?
Rango dissoc inh: 16%; miR-21 reporter: 1%; GLA inh pH 4.5: -7; Rango complex inh: 3.4%

Results for O=C1NN(c2cccc(Br)c2)C(=O)/C1=C/c1ccc(-c2cc([N+](=O)[O-])ccc2O)o1 ?
Rango dissoc inh: 25%; miR-21 reporter: 2%; GLA inh pH 4.5: -2; Rango complex inh: 5.4%

What do the screens show for `CC(C)(C)c1ccc(-c2nnc(SCCN3C(=O)c4ccccc4C3=O)o2)cc1`?
Rango dissoc inh: -5%; miR-21 reporter: -6%; GLA inh pH 4.5: 2; Rango complex inh: 1.6%

Results for CCN(C[C@H]1N[C@@](CC)(C(=O)OC)[C@H]2C(=O)N(C)C(=O)[C@@H]12)C(C)=O ?
Rango dissoc inh: 4%; Rango complex inh: 4.4%

What do the screens show for `COc1ccc(C2=NCCNC(C(F)(F)F)=C2)cc1`?
Rango dissoc inh: 4%; miR-21 reporter: -2%; GLA inh pH 4.5: -4; Rango complex inh: 0.7%

How did CCOC(=O)CSc1nnc(CNC(=O)Cc2ccccc2)n1-c1ccccc1OC do in these assays?
Rango dissoc inh: 1%; miR-21 reporter: -4%; GLA inh pH 4.5: 3; Rango complex inh: -2.9%

Results for O=C(O)C(=O)/C(=C\c1ccc([N+](=O)[O-])cc1)c1ccc2ccccc2n1 ?
Rango dissoc inh: -3%; miR-21 reporter: -54%; GLA inh pH 4.5: -3; Rango complex inh: inconclusive

Results for CCOC(=O)Cc1csc(NC(=O)c2ccoc2C)n1 ?
Rango dissoc inh: 2%; miR-21 reporter: -42%; GLA inh pH 4.5: 0; Rango complex inh: -2.4%

Of the compounds above, 3 have four or more nitrogen atoms.
What do the screens show for `Cc1ccc(N(CC(=O)NC2CCCCC2C)S(=O)(=O)c2c(C)nn(C)c2C)cc1` (stereo not given)?
Rango dissoc inh: 34%; miR-21 reporter: 0%; Rango complex inh: -0.6%

Results for Cc1ccc(OCC(=O)Nc2ccc(C)c(S(=O)(=O)N3CCCCCC3)c2)c([N+](=O)[O-])n1 ?
Rango dissoc inh: -2%; miR-21 reporter: 0%; GLA inh pH 4.5: -11; Rango complex inh: 0.9%

How did CCOC(=O)CSc1nnc(CNC(=O)Cc2ccccc2)n1-c1ccccc1OC do in these assays?
Rango dissoc inh: 1%; miR-21 reporter: -4%; GLA inh pH 4.5: 3; Rango complex inh: -2.9%

Other compounds follow:
What do the screens show for `O=C(Nc1cccc(S(=O)(=O)N2CCCCC2)c1)c1cc([N+](=O)[O-])ccc1N1CCOCC1`?
Rango dissoc inh: -6%; Rango complex inh: inconclusive

Results for CCn1nc(C)cc1C(=O)NC1CCCc2c1cnn2-c1cc(F)cc(F)c1 (stereo not given) ?
Rango dissoc inh: 2%; miR-21 reporter: 9%; Rango complex inh: -1.6%

Results for Cc1ccc(S(=O)(=O)NCC(=O)OCC(=O)N2CCc3ccccc32)cc1 ?
Rango dissoc inh: 2%; miR-21 reporter: 0%; GLA inh pH 4.5: -1; Rango complex inh: -6.0%

How did CCCn1nc(C(=O)Nc2ccc3nc(N4CCOCC4)sc3c2)ccc1=O do in these assays?
Rango dissoc inh: -9%; Rango complex inh: 2.2%

How did CC1(C)CC(=O)C2=C(C1)N(CCN1CCOCC1)C1=C(C(=O)CC(C)(C)C1)C2c1cccc(Cl)c1 do in these assays?
Rango dissoc inh: inconclusive; miR-21 reporter: -12%; GLA inh pH 4.5: 7; Rango complex inh: inconclusive

Results for COCC(=O)NCCc1nc(-c2ccccc2)cs1 ?
Rango dissoc inh: 7%; miR-21 reporter: -8%; GLA inh pH 4.5: 6; Rango complex inh: -0.2%

What do the screens show for `COc1ccc(NC(=S)N2CCC(C(=O)c3ccc(F)cc3)CC2)cc1`?
Rango dissoc inh: 5%; Rango complex inh: -0.5%

How did O=c1[nH]c2ccccc2n1CCCSc1cnc2ccccc2n1 do in these assays?
Rango dissoc inh: -5%; miR-21 reporter: -5%; GLA inh pH 4.5: -5; Rango complex inh: 0.4%

How did O=C(COC(=O)c1ccccc1Br)Nc1nnc(-c2ccccc2)o1 do in these assays?
Rango dissoc inh: -6%; Rango complex inh: 2.2%

Results for CC(NC(=O)CSc1ncnc2nc[nH]c12)c1ccccc1 (stereo not given) ?
Rango dissoc inh: 0%; miR-21 reporter: -7%; GLA inh pH 4.5: -5; Rango complex inh: -3.4%

What do the screens show for `Oc1ccccc1CNc1ncc(Br)cc1Br`?
Rango dissoc inh: -10%; miR-21 reporter: -37%; GLA inh pH 4.5: 8; Rango complex inh: 3.6%

Results for Cc1ccc([N+](=O)[O-])c2c1C(N1CCCC1)C(C)(C)O2 (stereo not given) ?
Rango dissoc inh: 6%; miR-21 reporter: -2%; GLA inh pH 4.5: 7; Rango complex inh: -1.0%

What do the screens show for `O=C1CC(C(=O)NCc2ccccc2)C2(CCCC2)O1` (stereo not given)?
Rango dissoc inh: -1%; miR-21 reporter: 0%; GLA inh pH 4.5: 3; Rango complex inh: -0.9%

What do the screens show for `CC(C)(O)C(=O)NNC(=S)Nc1ccc(F)c(Cl)c1`?
Rango dissoc inh: 3%; miR-21 reporter: -4%; GLA inh pH 4.5: 0; Rango complex inh: 2.7%

Results for COc1cccc(C2=NOC(C(=O)NCc3cccnc3)C2)c1 (stereo not given) ?
Rango dissoc inh: 1%; miR-21 reporter: 0%; Rango complex inh: -3.2%

How did Cc1ccc(NC(=O)C2C3C=CC4(O3)C2C(=O)N(CCCN2CCCC(C)C2)C4C(=O)NC2CCCCC2)cc1 (stereo not given) do in these assays?
Rango dissoc inh: -8%; miR-21 reporter: -2%; Rango complex inh: 3.1%

What do the screens show for `Cc1cc(C)cc(C(=O)NCC(=O)OCc2cc([N+](=O)[O-])cc3c2OCOC3)c1`?
Rango dissoc inh: 68%; miR-21 reporter: -3%; GLA inh pH 4.5: -1; Rango complex inh: -1.4%

How did O=C(NN1CCOCC1)c1cccc(Cl)c1 do in these assays?
Rango dissoc inh: -5%; miR-21 reporter: 0%; Rango complex inh: 0.3%

Results for O=C(CCn1ccc2cc(S(=O)(=O)N3CCCC3)ccc21)NCc1cccc(F)c1 ?
Rango dissoc inh: -9%; miR-21 reporter: 2%&4%; Rango complex inh: -4.6%

What do the screens show for `COc1ccc(N=C(N(C)C)P(=O)(N(C)C)N(C)C)cc1`?
Rango dissoc inh: 23%&36%; miR-21 reporter: 2%; GLA inh pH 4.5: 6; Rango complex inh: 0.9%&1.2%

What do the screens show for `CCOC(=O)Nc1ccc2c(c1)nc(CN1CCOCC1)n2C`?
Rango dissoc inh: 15%; miR-21 reporter: -14%; GLA inh pH 4.5: 0; Rango complex inh: -3.6%

Results for CN(CC(=O)Nc1ccc(F)cc1)C(=O)COC(=O)/C=C/c1cccs1 ?
Rango dissoc inh: 0%; Rango complex inh: -0.2%

Results for CC/C(=N\NC(=O)c1nnn(-c2nonc2N)c1CN(C)c1ccccc1)c1ccccc1 ?
Rango dissoc inh: inconclusive; miR-21 reporter: -3%; Rango complex inh: -1.5%

Results for O=c1[nH]c2ccccc2c2ccc(Cl)cc12 ?
Rango dissoc inh: 1%; Rango complex inh: -1.5%

Results for O=C(NNC(=O)c1cnccc1C(F)(F)F)c1ccc(Cl)cc1 ?
Rango dissoc inh: 5%; miR-21 reporter: 1%; GLA inh pH 4.5: 2; Rango complex inh: -0.6%

How did Cc1ccc(CN2C(=O)CCC2C(=O)NCCCN2CCC(C)CC2)cc1 (stereo not given) do in these assays?
Rango dissoc inh: -13%; miR-21 reporter: -3%; GLA inh pH 4.5: 4; Rango complex inh: -5.1%

Results for CC(C)(C)c1cc(NC(=O)c2ccco2)n(-c2ccccc2)n1 ?
Rango dissoc inh: -23%; miR-21 reporter: -1%; GLA inh pH 4.5: -1; Rango complex inh: 2.4%

Results for O=C(c1cn[nH]c1)c1cc(F)ccc1O ?
Rango dissoc inh: -12%; miR-21 reporter: 7%; GLA inh pH 4.5: -27; Rango complex inh: inconclusive

Results for Cc1cccc(C)c1OCc1cc(C(=O)NCc2cn(C)nc2C)no1 ?
Rango dissoc inh: 24%; miR-21 reporter: 2%; Rango complex inh: -1.3%

Results for Nc1cccc(Oc2ccc([N+](=O)[O-])cc2)c1 ?
Rango dissoc inh: -2%; miR-21 reporter: -8%; GLA inh pH 4.5: 5; Rango complex inh: -1.6%

Results for COCCCNC(=O)c1c(N)n(-c2ccc3c(c2)OCO3)c2nc3ccccc3nc12 ?
Rango dissoc inh: inconclusive; miR-21 reporter: -2%; GLA inh pH 4.5: 0; Rango complex inh: inconclusive

Results for Cn1c(SCC(=O)Nc2cc([N+](=O)[O-])ccc2F)nnc1C(F)(F)F ?
Rango dissoc inh: inconclusive; miR-21 reporter: 0%; GLA inh pH 4.5: -9; Rango complex inh: 0.6%

How did Cc1cc(C(=O)CCC(=O)N2CCN(S(=O)(=O)c3ccccc3)CC2)c(C)s1 do in these assays?
Rango dissoc inh: -4%; Rango complex inh: 0.4%

How did CCCc1[nH]c2ccc(C#N)cc2c1CCC do in these assays?
Rango dissoc inh: 23%; miR-21 reporter: inconclusive; Rango complex inh: -2.5%

What do the screens show for `Cc1ccc(CCNC(=O)c2nn(C)c3c2CS(=O)(=O)c2ccccc2-3)cc1`?
Rango dissoc inh: 24%; miR-21 reporter: 0%; Rango complex inh: 3.3%

What do the screens show for `COc1ccc(NC(=O)CSc2nncn2C)cc1`?
Rango dissoc inh: -1%; miR-21 reporter: -2%; Rango complex inh: 0.1%

What do the screens show for `CCOC(=O)[C@H]1[C@H]2COc3cc(OC)ccc3[C@@H]2N2C(=O)c3cc(F)ccc3NC(=O)[C@@]12C`?
Rango dissoc inh: -10%; Rango complex inh: -1.2%

How did O=C(O)c1ccc(C(=O)O)c(C(=O)c2ccccc2)c1 do in these assays?
Rango dissoc inh: 2%; miR-21 reporter: -6%; GLA inh pH 4.5: 4; Rango complex inh: 0.1%

What do the screens show for `CCCCC(=O)Nc1cccc(NC(=O)c2cccc([N+](=O)[O-])c2)c1`?
Rango dissoc inh: 0%; miR-21 reporter: 1%; GLA inh pH 4.5: -2; Rango complex inh: -3.0%

How did CCCCNC(=O)c1cnc2n(c1=O)CCS2 do in these assays?
Rango dissoc inh: -7%; miR-21 reporter: -7%; GLA inh pH 4.5: -5; Rango complex inh: -3.7%

What do the screens show for `COc1ccc(CCN(C)C(=O)c2cc(=O)c3ccccc3o2)cc1OC`?
Rango dissoc inh: 7%; miR-21 reporter: -36%; Rango complex inh: 0.9%

How did COc1ccc(C2NC(=O)NC(C)=C2C(=O)Nc2cc(C)ccc2C)cc1OC (stereo not given) do in these assays?
Rango dissoc inh: -4%; miR-21 reporter: -2%; GLA inh pH 4.5: 1; Rango complex inh: 1.2%

Results for CC(C)(C)NC(=O)C1CCN(S(=O)(=O)c2cccc3nsnc23)CC1 ?
Rango dissoc inh: 7%; miR-21 reporter: -2%; Rango complex inh: 2.3%

How did CC1=C(CC[C@@H](C)CO)OC2CC3C4CCC5CC(O)CCC5(C)C4CC(=O)C3(C)C12 (stereo not given in full) do in these assays?
Rango dissoc inh: 1%; Rango complex inh: 0.9%

How did CCC(C)n1c(-c2cccc(S(=O)(=O)N3CCOCC3)c2)n[nH]c1=S (stereo not given) do in these assays?
Rango dissoc inh: 0%; Rango complex inh: 0.0%

What do the screens show for `O=C(Cc1ccc(Cl)cc1)Nc1ccc(NC(=O)c2cccs2)cc1`?
Rango dissoc inh: 1%; miR-21 reporter: -3%; GLA inh pH 4.5: 1; Rango complex inh: 0.2%

What do the screens show for `COc1ccc(OC(C)C(=O)N2CCC(C)CC2)cc1` (stereo not given)?
Rango dissoc inh: 26%; miR-21 reporter: 0%; GLA inh pH 4.5: 3; Rango complex inh: 1.3%

What do the screens show for `COc1ccc(OC)c(-n2c(Cn3c(-c4ccccn4)nc4ccccc43)n[nH]c2=S)c1`?
Rango dissoc inh: 0%; miR-21 reporter: -9%; GLA inh pH 4.5: 3; Rango complex inh: -2.3%
